LYPLA2 inh – blocks human lysophospholipase 2, a PME1 counter-screen; recombinant LYPLA2, FP-Rh probe fluorescence polarization; inhibition, % at 5.9 µM; hit rate 0.38% among 320,000;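 active means inhibition above the screen-wide mean plus 3 SD, limit set per campaign, cut at about 26% in these data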;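 further: 0% = LYPLA2 with DMSO and 100% = wells lacking LYPLA2 enzyme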
PAFAH1B3 FP inh – PAFAH1B3 (human) inhibition; Q15102; recombinant PAFAH1B3, FP-rhodamine probe, fluorescence polarization; inhibition, % at 3.39 µM; hit rate 0.28% among 340,000; AID 492972;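 active means inhibition above the screen-wide average of all tested compounds plus 3 SD, cut at about 25% in these data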;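 further: 0% = enzyme with DMSO only and 100% = wells lacking PAFAH1B3 protein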
Target sequence (Q15102 whole entry, looked up): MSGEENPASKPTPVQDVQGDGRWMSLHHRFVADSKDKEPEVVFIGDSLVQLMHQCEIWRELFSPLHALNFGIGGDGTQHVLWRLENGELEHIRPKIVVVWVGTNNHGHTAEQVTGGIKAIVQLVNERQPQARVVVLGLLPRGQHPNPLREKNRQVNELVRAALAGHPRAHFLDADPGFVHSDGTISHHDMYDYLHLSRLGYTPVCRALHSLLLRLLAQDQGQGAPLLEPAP
GSTO1 counter – GSTO1 inhibition, counter-screen for RBBP9 inhibitors | P78417 | inhibition, % at 5.96 µM | hit rate 1.1% among 300,000 | recombinant GSTO1, activity-based probe fluorescence polarization;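 active means inhibition above the campaign mean inhibition plus 3 SD, cut at about 35% in these data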;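 further: 0% = GSTO1-1 with DMSO and 100% = wells lacking GSTO1-1 enzyme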
PREPL inh – human PREPL enzyme inhibition. AID 2751. Q4J6C6. inhibition, % at 5.96 µM. recombinant PREPL, fluorescence polarization activity-based probe. hit rate 0.68% among 320,000; in the data active means inhibition above about 43%;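 further: 0% = enzyme with DMSO and 100% = wells lacking enzyme; many of its hits are not listed in these tables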
Target sequence (Q4J6C6 whole entry, looked up): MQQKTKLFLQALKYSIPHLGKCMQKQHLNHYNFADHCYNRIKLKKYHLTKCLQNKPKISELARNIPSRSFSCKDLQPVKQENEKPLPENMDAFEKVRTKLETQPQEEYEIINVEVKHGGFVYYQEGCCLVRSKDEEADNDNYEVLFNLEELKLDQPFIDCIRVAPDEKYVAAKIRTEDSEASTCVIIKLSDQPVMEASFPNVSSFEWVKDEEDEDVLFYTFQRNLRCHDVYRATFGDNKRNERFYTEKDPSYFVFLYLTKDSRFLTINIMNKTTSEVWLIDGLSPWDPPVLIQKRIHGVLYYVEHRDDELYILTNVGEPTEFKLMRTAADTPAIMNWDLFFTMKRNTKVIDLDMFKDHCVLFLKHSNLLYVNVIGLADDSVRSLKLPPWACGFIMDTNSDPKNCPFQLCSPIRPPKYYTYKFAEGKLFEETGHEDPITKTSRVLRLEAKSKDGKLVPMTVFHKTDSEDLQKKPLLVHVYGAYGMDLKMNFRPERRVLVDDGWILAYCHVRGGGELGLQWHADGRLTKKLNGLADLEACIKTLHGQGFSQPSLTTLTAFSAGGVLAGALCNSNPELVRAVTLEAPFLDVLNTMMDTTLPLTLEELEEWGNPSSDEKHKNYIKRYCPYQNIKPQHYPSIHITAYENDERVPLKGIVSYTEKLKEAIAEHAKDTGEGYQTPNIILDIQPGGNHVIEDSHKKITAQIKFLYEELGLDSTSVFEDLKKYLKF
LYPLA1 counter – blocks human lysophospholipase 1, a PME1 counter-screen. recombinant LYPLA1, FP-Rh probe fluorescence polarization. inhibition, % at 5.9 µM. AID 2174. O75608. hit rate 0.16% among 320,000;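 active means inhibition above the mean of all tested compounds plus 3 SD, set per campaign, cut at about 14% in these data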;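 further: inhibitors block serine hydrolase probe labeling of LYPLA1 so polarization falls; 0% = enzyme with DMSO and 100% = wells lacking LYPLA1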
PAFAH2 inh – PAFAH2 (human) inhibition; Q99487; recombinant PAFAH2, FP-rhodamine activity probe, fluorescence polarization; AID 492956; inhibition, % at 3.39 µM; hit rate 0.99% among 340,000;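 active means inhibition above the mean over all tested compounds plus 3 SD, cut at about 30% in these data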;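 further: inhibitors block probe labeling of enzyme so polarization drops; 0% = enzyme with DMSO and 100% = wells lacking PAFAH2 protein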
pPAFAH FP inh – inhibitors of human plasma PAF acetylhydrolase (pPAFAH). inhibition, % at 3.39 µM. Q13093. recombinant pPAFAH, FP-rhodamine probe fluorescence polarization. hit rate 1.5% among 330,000;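 active means inhibition above the mean inhibition across the screen plus 3 SD, cut at about 25% in these data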;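 further: inhibitors block binding of the rhodamine activity-based probe so polarization drops; 0% = enzyme with DMSO and 100% = wells lacking pPAFAH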
PAD4 inh – PAD4 (human) enzyme inhibition; inhibition, % at 6.36 µM; recombinant PAD4, RCA probe fluorescence polarization; Q9UM07; hit rate 0.41% among 330,000;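 active means percent inhibition above a cutoff equal to the mean of all tested compounds plus 3 SD, cut at about 15% in these data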;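 further: 0% = PAD4 with RCA probe and DMSO and 100% = probe without PAD4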
* hit, by the source's call; / = no result given. An excerpt; the hit share may differ from the screen's.

item | canonical_smiles | LYPLA2 inh | PAFAH1B3 FP inh | GSTO1 counter | PREPL inh | LYPLA1 counter | PAFAH2 inh | pPAFAH FP inh | PAD4 inh
1 | C/C(=N\O)c1ccn(S(=O)(=O)c2ccc(Cl)cc2)c1 | 3.8 | 5.2 | 0.4 | -0.7 | -0.1 | 2.0 | 3.2 | -0.8
2 | Cc1cccc(OCc2nnc(SCc3nc4cc(C(F)(F)F)ccc4c(=O)[nH]3)o2)c1 | -18.9 | -2.5 | -21.5 | 6.8 | -14.6 | -18.7 | -4.2 | -7.7
3 | O=C(NCCc1ccccc1)c1cccc(S(=O)(=O)NCc2ccccc2)c1 | -5.1 | 2.4 | -6.7 | -2.3 | -2.6 | 2.3 | 1.4 | -0.6
4 | O=C(Nc1nnc(CCc2ccccc2)s1)c1cccs1 | -2.3 | 15.2 | -3.3 | 2.7 | -1.5 | -4.7 | 2.9 | -2.2
5 | C/C(=N/OC(=O)c1ccc(Cl)cc1Cl)c1oc(C)nc1C | -4.6 | 8.3 | 13.4 | 13.6 | -3.9 | 2.6 | -2.2 | -3.5
6 | O=C(CC(O)(c1ccccc1)C(F)(F)C(F)F)c1cccs1 (stereo unspecified) | 5.3 | 4.1 | 7.6 | 1.5 | 0.0 | 0.4 | 3.5 | -3.0
7 | O=C(NCCc1ccc(Cl)cc1)C1CCN(C(=O)c2sccc2-n2cccc2)CC1 | 19.4 | 8.3 | -0.2 | 24.6 | 1.0 | 2.1 | 3.3 | 0.6
8 | Cc1ccccc1OCCC(=O)N1CCN(S(=O)(=O)c2ccc(Cl)cc2)CC1 | 3.3 | 12.6 | 8.5 | -15.4 | -2.4 | 10.4 | 5.8 | 3.5
9 | O=C(COC(=O)CCSc1ccc(Cl)cc1)NCc1ccccc1Cl | 6.4 | -3.0 | 4.0 | -8.7 | 1.0 | -0.5 | 13.2 | -5.2
10 | N#C/C(=C\c1ccccc1)C(=O)NNS(=O)(=O)c1ccc(Br)cc1 | / | 15.5 | / | 8.8 | / | 0.5 | 3.8 | -4.2
11 | CC(=O)N1CCSc2ccc(S(=O)(=O)NCCc3ccc(Cl)cc3)cc21 | -0.9 | 5.7 | 20.1 | -2.0 | -0.1 | -1.2 | 16.9 | -0.6
12 | O=C(Nc1cccc(Cl)c1)c1ccc(F)c(S(=O)(=O)NCc2ccc3c(c2)OCO3)c1 | -29.5 | -5.2 | -29.5 | -18.2 | -30.6 | -27.7 | -10.7 | -5.2
13 | Cc1nc2cc(C(F)(F)F)ccc2n1CCNc1nc(-c2ccc(F)cc2)cs1 | 9.7 | 9.1 | 3.7 | 12.2 | 4.2 | 0.9 | 13.1 | -5.5
14 | O=C(O)/C=C/c1cn(-c2ccccc2)nc1-c1cc2ccccc2o1 | 5.9 | 2.4 | -36.8 | 4.5 | -0.2 | 6.0 | -3.7 | -2.7
15 | Cc1ccc(CNn2cnnc2SCC(=O)NC(C)(C)C)cc1 | -2.6 | -0.6 | 4.3 | 12.8 | -2.9 | 6.3 | -9.0 | 2.1
16 | Cc1ccc(SCCNC(=O)CN2C(=O)c3ccccc3S2(=O)=O)cc1 | -0.3 | 6.8 | 3.1 | -6.7 | -1.1 | 2.2 | 4.5 | -4.7
17 | O=C(O)c1cccc(S(=O)(=O)N(Cc2ccccc2)c2ccc(Cl)cc2)c1 | -7.1 | 6.3 | 3.5 | -8.4 | -1.9 | -6.0 | 11.6 | 5.4
18 | Cc1ccccc1Nc1nc(N)nc(COC(=O)CCS(=O)(=O)c2ccc(Cl)cc2)n1 | / | 6.2 | / | / | / | 3.1 | / | /
19 | Cc1ccc(S(=O)(=O)/N=C(/NC(=S)Nc2ccccc2)c2ccccc2)cc1 | -3.9 | 3.7 | 2.7 | 0.8 | -1.4 | -10.9 | 2.4 | 1.7
20 | Cc1cc(C(C)(C)C)oc1C(=O)N(CC(=O)NC1CCCC1)c1ccc(F)cc1 | 3.5 | 5.6 | -1.9 | 14.0 | 1.6 | 4.3 | -7.1 | -2.1
21 | O=C(Nc1nnc(Cc2ccc(Cl)cc2)s1)c1cccnc1 | -5.5 | -3.0 | -13.6 | -5.1 | -5.6 | 2.1 | 5.0 | -3.5
22 | CC1CCN(S(=O)(=O)c2ccc3[nH]c(=O)cc(C(=O)O)c3c2)CC1 | 3.7 | -0.7 | 1.1 | 3.1 | -1.0 | 4.1 | -1.3 | -4.6
23 | Cc1cc(=O)n(CCc2ccccc2)c(O)c1C#N | 4.9 | 5.4 | 12.1 | 5.5 | 2.1 | 6.1 | 30.1* | -14.0
24 | Cn1cnc(S(=O)(=O)NCc2ccc(Br)cc2)c1 | -5.6 | 12.3 | 6.9 | 0.0 | -9.1 | 6.2 | -3.5 | -2.2
25 | CC1CCN(S(=O)(=O)c2ccc3c(ccn3CC(=O)O)c2)CC1 | 8.6 | 6.7 | 10.3 | -0.1 | 3.3 | 0.9 | 5.0 | -1.8
26 | N/C(=N\OC(=O)CSc1ccccc1)c1ccc([N+](=O)[O-])cc1 | 12.4 | 3.0 | 2.3 | 8.3 | 3.3 | 7.1 | 2.9 | 1.4
27 | Cc1cc(C)nc(NS(=O)(=O)c2ccc(NC(=O)C3(c4ccc([N+](=O)[O-])cc4)CCCC3)cc2)n1 | -0.7 | 2.0 | -4.2 | -31.4 | -1.8 | -4.9 | 1.5 | 5.2
28 | O=C(NC1=NCCS1)C1CCN(S(=O)(=O)c2ccc(Cl)cc2)CC1 | -5.5 | 15.2 | / | -2.1 | -0.5 | 2.9 | 3.8 | -4.7
29 | CN(CC(=O)NCCc1ccc(F)cc1)Cc1ccc(Br)cc1 | 1.7 | 10.4 | 1.4 | -14.7 | 0.4 | -0.8 | 8.0 | -3.4
30 | O=C(CC1CC2CCC1C2)NCCc1ccc(Cl)cc1 (stereo unspecified) | 0.7 | -2.4 | 3.9 | 7.8 | 0.6 | 6.8 | 7.3 | -4.0
31 | O=C(Nc1ccccc1N1CCOCC1)C1(c2ccc(Cl)cc2)CCC1 | -3.0 | 3.7 | -1.5 | 15.8 | -1.0 | -1.9 | 4.0 | -1.4
32 | Cc1cc(F)ccc1S(=O)(=O)N1CCCOC1CNC(=O)C(=O)NCCc1c[nH]c2ccccc12 (stereo unspecified) | 7.3 | -3.8 | -0.7 | 17.5 | 3.0 | -2.0 | 5.0 | -6.2
33 | N#Cc1cc2c(nc1SCC(=O)Nc1sc3c(c1C#N)CCC3)CCCC2 | 5.8 | -1.2 | 5.2 | 10.4 | 2.0 | -1.5 | 4.2 | -2.6
34 | Cc1ccc(SCc2cc(=O)[nH]c(N3CCCCC3)n2)cc1 | 3.2 | 2.6 | -1.4 | 4.0 | -1.4 | -5.9 | -6.4 | -1.6
35 | Cc1ccc(S(=O)(=O)c2ccc(Cl)cc2)cc1S(=O)(=O)NC(C)C(=O)O (stereo unspecified) | 5.6 | 1.7 | 4.3 | 12.7 | -0.7 | 1.4 | 0.0 | -0.8
36 | Cc1ccc(S(=O)(=O)N2[C@@H](c3ccccc3)C(C(=O)O)=CC[C@H]2c2ccc(C(C)C)cc2)cc1 | -8.3 | 10.2 | -18.1 | 1.1 | -5.1 | -3.5 | 7.1 | 3.7
37 | O=C(CSCc1ccc(Cl)cc1)Nc1cccc(C(=O)O)c1 | 0.6 | 8.7 | 7.1 | -4.5 | 0.1 | 4.6 | 2.3 | 1.2
38 | Cc1ccc([C@H]2C(C(=O)O)=CC[C@@H](c3cccc(C)c3)N2S(=O)(=O)c2ccc(C)cc2)cc1 | / | 13.2 | / | 11.4 | / | 11.5 | 1.3 | 2.6
39 | O=C(O)c1cccc2sc3cc(Cl)ccc3c(=O)c12 | -1.0 | 7.5 | / | -3.7 | 2.2 | -4.8 | 2.9 | 0.8
40 | O=C(NCc1ccc(Cl)cc1)c1n[nH]c([N+](=O)[O-])c1Cl | -1.0 | -3.4 | 2.4 | 6.6 | -2.3 | -3.5 | -0.2 | -4.5
41 | Cc1nnc(NC(=O)CCSc2ccc(Cl)cc2)s1 | 8.7 | 2.6 | -2.3 | 1.1 | 3.6 | 3.7 | 4.5 | -3.1
42 | COc1ccc(CC(=O)Nc2cc(S(=O)(=O)N3CCCCC3)ccc2N2CCN(C)CC2)cc1 | 1.9 | -4.6 | 4.1 | 25.7 | -0.3 | 3.6 | 12.3 | -2.0
43 | O=C(CN1CCN(S(=O)(=O)c2ccc(Br)cc2)CC1)N/N=C/c1cc([N+](=O)[O-])ccc1Cl | -1.5 | 5.6 | -2.3 | 20.7 | -1.0 | -2.1 | 4.7 | 3.3
44 | Cc1ccc([C@@H]2CC=C(C(=O)O)[C@H](c3ccc(Cl)cc3)N2S(=O)(=O)c2ccc(C)cc2)cc1 | 1.3 | 7.9 | -29.8 | -2.7 | -1.6 | 0.6 | 14.4 | -2.8
45 | COC(=O)Cc1c(C)nc2nc(NCc3ccc(Cl)cc3)[nH]n2c1=O | 0.0 | 21.4 | -0.2 | -7.3 | -1.4 | 3.7 | 5.1 | -2.7
46 | O=C(CSc1nnc(-c2ccccc2F)n1C1CCCCC1)Nc1cc(C(=O)O)ccc1Cl | / | 3.1 | / | 9.8 | / | 11.0 | -7.3 | -7.9
47 | CC(=O)N1CCOc2ccc(S(=O)(=O)NCCc3ccc(Cl)cc3)cc21 | -2.5 | -1.4 | 22.4 | -19.2 | -0.6 | -0.6 | 11.3 | 1.5
48 | Cc1nc(CSc2ccc(Cl)cc2)cc(NCc2ccccc2)n1 | -3.6 | 3.0 | -11.2 | -30.9 | -4.8 | 10.4 | 1.0 | 1.5
49 | O=C(N[C@@H](Cc1c[nH]c2ccccc12)C(=O)O)OCC1c2ccccc2-c2ccccc21 | / | 2.4 | / | / | / | 0.7 | / | /
50 | CC(NC(=O)COC(=O)CSc1ccc(F)cc1)c1ccc(F)cc1 (stereo unspecified) | -0.6 | 7.2 | 1.1 | 1.9 | 0.1 | 0.7 | 21.9 | -1.3
51 | Cc1ccc(CNC(=O)C(=O)NCC2OCCCN2S(=O)(=O)c2ccc(F)cc2)cc1 (stereo unspecified) | -5.5 | 5.0 | 5.5 | 4.0 | -0.6 | 1.0 | -1.3 | 1.4
52 | CCCn1c(SCc2ccc(Cl)cc2)nc2c1c(=O)[nH]c(=O)n2C | 6.8 | -1.8 | 4.6 | 41.2 | -1.3 | 6.8 | 11.1 | -4.1
53 | Cc1ccc(C2(c3noc(CN(C)CC4CCCCO4)n3)CCCC2)cc1 (stereo unspecified) | -1.5 | 10.9 | 1.1 | -12.5 | 1.5 | -6.0 | -2.0 | -0.5
54 | COC(=O)c1sc(C(F)(F)F)c(-c2ccccc2)c1S(=O)(=O)N1CCOCC1 | / | -7.2 | / | / | / | 0.9 | / | /
55 | CC1CCN(S(=O)(=O)c2ccc3c(ccn3CCC(=O)N3CCCCC3)c2)CC1 | 13.7 | 1.1 | 2.3 | 0.2 | 0.9 | 1.1 | 3.3 | 0.0
56 | O=C(O)c1ccc2c(c1)C(=O)N(CCC1=CCCCC1)C2=O | 14.5 | -3.9 | -12.4 | 4.5 | -4.4 | 3.4 | 1.9 | -0.4
57 | Cc1cc(C(=O)Nc2sc3c(c2C#N)CCC(C(C)(C)C)C3)no1 (stereo unspecified) | 1.6 | -6.9 | -13.0 | 5.0 | 0.1 | 10.8 | 5.3 | -1.6
58 | CCn1cc(C(=O)NC(C)C23CC4CC(CC(C4)C2)C3)cn1 (stereo unspecified) | 1.5 | -3.3 | -0.7 | -6.0 | -1.9 | 11.7 | 4.6 | 0.9
59 | CCc1cc(-c2n[nH]c(=S)n2C(C)c2ccccc2)cs1 (stereo unspecified) | 6.8 | -3.0 | -3.8 | 5.0 | -0.4 | -6.7 | 8.2 | -3.1
